D2 ag: human D2 receptor agonism in beta-arrestin assay | P14416 | DiscoveRx PathHunter D2 beta-arrestin, luminescence, 90 min; 100% = 57 uM dopamine signal | activation, % (concentration not given with the values) | 360,000 compounds, 0.084% hits | AID 624465; in the data active = activation above about 40%; inconclusive = about 15% to 40%; inactive = below about 15%; also: the text of the record calls up to 30% inactive
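Agonist mode: compounds alone added to overnight-plated D2 PathHunter cells for 90 min at 37 C, with 57 uM final dopamine (EC100) defining full response. Beta-arrestin recruitment detected by chemiluminescent reagent, read after 1 h at ambient temperature.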
TRPML1 blocker: blocks the human TRPML1 channel | Q9GZU1 | TRPML1-inducible cells, Ca2+ dye fluorescence, FDSS; stronger effect = lower value; inhibition of EC80 agonist-evoked calcium signal | activity change, negative = inhibition, % (concentration not given with the values) | 390,000 compounds, 0.02% hits | AID 624415; in the data active means activity change below about -50%; inconclusive means about -30% to -50%; inactive means above about -30%;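 also: stimulus is agonist 54-4 at its EC80 concentration; % is scaled to controls: 0 for no effect and ±100 for the full control effect; the text of the record puts the active cut at -80%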
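Calcium fluorescence in TRPML1-DL cells induced overnight with Tet: a 110 s read after compound pin addition, then a 110 s antagonist read after challenge with 54-4 at 4 uM final (EC80).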
CtBP-E1A blk: CtBP/E1A binding inhibition; AlphaScreen GST-E1A/His-CtBP binding, 1536-well; stronger effect = lower value; control for the full effect not named in the record; 340,000 compounds, 0.49% hits; AID 651724; activity change, % (concentration not given with the values); in the data active means activity change below about -65%; inconclusive means about -30% to -65%; inactive means above about -30%; also: % is scaled to controls: 0 for no effect and ±100 for the full control effect
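Protein mix (5X: 125 nM each GST-E1A, His-CtBP) was incubated with pinned compound 2 h at 37 deg C in dark, in 50 mM Tris pH 8.0 buffer with 300 mM NaCl. Glutathione donor and nickel acceptor beads followed; AlphaScreen signal read after 1 h.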
PINK1 expr mod: modulators of PINK1 expression. PINK1 immunofluorescence, high-content cytometry, 24 h. Potency, µM (doses to about 76.6 µM), for the others: at the highest dose activation (PINK1 increase), usual class: activators. 410,000 compounds, 0.2% hits. AID 624263; active = well fitted activation curve with a large enough effect; inconclusive = small, poorly fitted or top-dose-only effect; inactive = flat fitted curve, though single readings scatter; cell line not stated here;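 also: potency is read from the fitted curve at half-maximal effect; % of control where 0% means no effect; nearly all actives have a fitted effect of over 65% in size; a mitochondrial uncoupler was the plate control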
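Compound titrations (5 concentrations, 24 h) on a stable cell line; DMSO and CCCP controls. Endpoint: fixed-cell PINK1 immunofluorescence with mitochondrial, cell and nuclear markers, scanned by microplate cytometer.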
Six1-Eya2 inh: blocks human Six1 binding to Eya2 | AlphaScreen GST-Six1/His-Eya2 binding, biochemical; stronger effect = lower value; control for the full effect not named in the record | 360,000 compounds, 0.56% hits | activity change, % (concentration not given with the values) | AID 651725; in the data active = activity change below about -65%; inconclusive = about -30% to -65%; inactive = above about -30%; also: % is scaled to controls: 0 for no effect and ±100 for the full control effect
Target sequence (O00167 whole entry, looked up): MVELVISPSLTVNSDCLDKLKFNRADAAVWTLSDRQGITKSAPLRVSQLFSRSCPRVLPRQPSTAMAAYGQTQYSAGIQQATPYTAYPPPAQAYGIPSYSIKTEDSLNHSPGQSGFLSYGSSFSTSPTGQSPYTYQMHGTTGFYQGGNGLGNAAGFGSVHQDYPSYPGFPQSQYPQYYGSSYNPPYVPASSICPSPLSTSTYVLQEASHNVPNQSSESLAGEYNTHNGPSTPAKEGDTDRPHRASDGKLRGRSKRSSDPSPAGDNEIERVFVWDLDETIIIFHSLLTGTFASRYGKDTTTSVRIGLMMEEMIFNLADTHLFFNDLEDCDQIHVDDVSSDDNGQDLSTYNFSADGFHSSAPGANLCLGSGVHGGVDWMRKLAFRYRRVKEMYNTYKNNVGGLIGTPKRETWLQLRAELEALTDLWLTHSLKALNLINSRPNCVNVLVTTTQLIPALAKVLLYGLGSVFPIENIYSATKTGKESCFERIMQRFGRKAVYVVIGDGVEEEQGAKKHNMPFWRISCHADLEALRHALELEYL
Target sequence (Q15475 whole entry, looked up): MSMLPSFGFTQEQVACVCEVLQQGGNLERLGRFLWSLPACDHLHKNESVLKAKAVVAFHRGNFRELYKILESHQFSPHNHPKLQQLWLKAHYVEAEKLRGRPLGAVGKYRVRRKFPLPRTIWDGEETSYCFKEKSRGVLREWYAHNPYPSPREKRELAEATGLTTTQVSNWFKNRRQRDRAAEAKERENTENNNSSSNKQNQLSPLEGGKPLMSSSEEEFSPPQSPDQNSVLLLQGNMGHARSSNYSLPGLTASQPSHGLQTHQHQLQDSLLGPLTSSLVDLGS
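Compounds are tested against tagged Six1 and Eya2 proteins bridged by glutathione donor and nickel acceptor beads; after a one-hour incubation at 37 °C without light, AlphaScreen emission is recorded.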
TRPML1 ag: agonists of human TRPML1 channel. Q9GZU1. TRPML1-expressing cells, Ca2+ dye fluorescence, FDSS; host cell line not named in the record; reference of the full effect not given here. activation, % (test concentration not listed). 410,000 compounds, 0.12% hits; in the data active = activation above about 50%; inconclusive = about 30% to 50%; inactive = below about 30%; also: 0% is about no effect; the text of the record puts the active cut at 80%
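Calcium fluorescence on an FDSS kinetic reader gave the read-out. Tet-induced TRPML1-DL cells were plated overnight, dye-loaded (Ca8 with quencher, 45-90 min, room temperature, dark), then read 110 s after compound addition, and again 110 s after 4uM final 54-4 (EC80).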
* = called active by the depositor; ? = inconclusive; · = not tested or not shown; [ ] = dose if it differs, or a comment.

molecule,CtBP-E1A blk,Six1-Eya2 inh,PINK1 expr mod,TRPML1 blocker,D2 ag,TRPML1 ag
COc1ccc(Cl)cc1NC(=O)CN(c1ccccc1)S(=O)(=O)N(C)C,4,-7,2.7%,-4,-1.2,0.3
CC(=O)c1cccc(Nc2ccc3cc(S(=O)(=O)N4CCC(C)CC4)ccc3n2)c1,·,·,1.5%,-6,·,2.2
O=C(CCc1ccccn1)N1CCCC(CNS(=O)(=O)c2cccs2)C1 (stereo not given),4,1,-1.6%,-7,3.3,-0.4
NS(=O)(=O)c1ccc(CCNC(=O)Nc2ccc(Cl)cc2)cc1,-10,3,-5.9%,-3,-0.8,1.0
OC[C@@H]1CN(Cc2cccc(C(F)(F)F)c2)C[C@H](n2cnc3c(NC4CC4)ncnc32)O1,5,-5,0.5%,·,1.9,-0.5
N#CC1(NC(=O)CSc2nnc3n2CCCCC3)CCCCC1,·,4,1.3%,-2,9.9,-0.6
COc1ccccc1NC(=O)CS(=O)(=O)c1cn(CC(=O)N2CCOCC2)c2ccccc12,4,5,1.8%,-7,-3.2,-0.5
NC(=O)C1CCCN(C(=O)c2cccc(S(=O)(=O)N(Cc3ccccc3)c3ccccc3)c2)C1 (stereo not given),7,0,0.7%,10,-2.1,5.4
CCC(C)NC(=O)C1CCN(S(=O)(=O)c2ccc3c(c2)CCCN3C(C)=O)CC1 (stereo not given),·,·,-1.1%,-12,·,-0.4
COC(=O)c1c(NC(=O)CN(c2ccccc2)S(C)(=O)=O)sc2c1CCCC2,1,-1,6.3%,-8,-1.5,0.8
Cc1cc(C(C)(C)C)cc(CN2CCN(S(=O)(=O)c3cccs3)CC2)c1O,-8,3,-0.5%,-20,-3.4,-0.3
CCOC(=O)c1ccc(N2C(=O)C(O)=C(C(C)=O)C2c2ccc(O)c(OC)c2)cc1 (stereo not given),11,3,-1.0%,2,-0.1,-0.1
COc1ccccc1NS(=O)(=O)c1cc(NC(=O)c2cccs2)ccc1N1CCOCC1,-2,-3,3.0%,31,1.6,0.6
COC(=O)c1c(NC(=O)CC2SCC(C(=O)OC)NC2=O)sc2c1CCCC2 (stereo not given),-1,-7,-1.3%,-3,-4.4,0.5
CCc1nn2c(=O)cc(COC(=O)c3ccccc3NC(=O)c3ccc(C(C)(C)C)cc3)nc2s1,·,·,4.0%,4,·,1.0
Cc1ccc(SCCc2ccc(C)nc2)cc1,0,6,2.4%,-3,-2.2,0.6
O=C(Nc1ccc(N2CCOCC2)nc1)c1cccs1,-11,0,-0.4%,11,-0.8,-0.6
COCCNC(=O)Cc1ccc(NC(=O)N2CCCCc3ccccc32)cc1,·,·,1.4%,-10,·,-1.0
COc1ccccc1/C=C/C(=O)NCC(=O)N/N=C/c1ccc(C)o1,-19,-12,0.6%,4,-2.9,3.2
Cc1ccc(-c2cn3c(=O)cc(C)[nH]c3n2)cc1,-13,4,3.1%,-14,-3.5,-0.1
CC1CCCC(C)N1/N=C/c1ccc(Cl)cc1 (stereo not given),2,-3,3.2%,3,-1.5,1.1
CCOC(=O)c1cc(-c2ccc(OC)cc2)n(CCC(=O)Nc2cccc(C)c2C)c1C,·,·,0.6%,3,·,1.7
O=C(CCCC(=O)OCC(F)(F)C(F)F)Nc1ccccc1F,0,18,-1.9%,-9,6.6,2.3
COc1ccccc1Cn1c(SCC(=O)C(C)(C)C)nc2ccccc2c1=O,·,·,3.4%,74,·,2.2
Cc1ccc(NC(=O)COc2ccc(/C(N)=N/O)cc2)cc1C,-7,-7,0.4%,-7,-2.5,1.1

Further compounds follow.
molecule,CtBP-E1A blk,Six1-Eya2 inh,PINK1 expr mod,TRPML1 blocker,D2 ag,TRPML1 ag
COc1cccc(C(=O)NCCCNc2nc3cc(C)cc(C)c3cc2C#N)c1,0,1,6.2%,-7,0.4,1.5
CC(=O)c1ccc(-n2c(C)ccc2-c2ccccc2)cc1,-8,-13,-0.4%[38.3 µM],-4,-1.5,0.8
O=C(NCCCN1CCOCC1)C(c1ccccc1)c1ccccc1,4,-9,0.2%,-8,-1.5,-1.3
Cc1cnc(NC(=O)CSc2c(Cl)cccc2Cl)s1,10,8,2.2%,20,1.8,0.6
C=CCNc1oc(COc2ccc(C)cc2)nc1C#N,-1,-9,1.6%,-4,2.1,3.0
O=c1[nH]c(Cc2ccc(Cl)cc2)nc2ccccc12,-4,8,7.3%,14,1.4,-0.1
CCn1cc(C(=O)N2CCOCC2)c(=O)c2cc(S(=O)(=O)N(C)C)ccc21,10,-2,-2.0%,-9,-1.6,0.4
CCc1ncc(C)[nH]1,-1,-4,5.3%,-19,4.7,-0.1
Clc1ccc(-c2noc(CSc3nnc(Cc4cccs4)n3-c3ccccc3)n2)cc1,-2,-9,10%,31,-0.4,1.3
O=C1N(c2ccc3c(c2)OCCO3)C(c2ccccc2)C1(F)F (stereo not given),-14,0,1.5%,9,-3.4,3.0
CCOC(=O)C(O)(CC(=O)c1ccc(Cl)cc1)C(=O)OCC,10,3,0.4%,6,0.9,-1.3
CN1CCN(c2ccccc2NC(=O)c2ccc(-c3cccc([N+](=O)[O-])c3)o2)CC1,-15,-11,2.9%,-5,-1.1,1.3
CCOc1ccc(CCNC(=O)c2cnc3sc(N4CCCC4)nn3c2=O)cc1,·,·,1.1%,-6,·,-0.6
O=C(C[n+]1cc(-c2ccccc2)n2c1CCC2)N1c2ccccc2Sc2ccccc21,-15,-4,-0.1%,-2,0.1,-1.1
CC1Cc2ccccc2N1C(=O)CSc1nc2ccccc2n1CC(=O)N1CCOCC1 (stereo not given),4,-1,2.9%[38.3 µM],-7,-2.7,0.1
Cc1ccc(S(=O)(=O)CCC(=O)OCc2ccc(Cl)c(Cl)c2)cc1,32,33,17%,-6,2.4,3.3
O=C(NCc1ccccc1Cl)c1csc([C@@H]2C[C@H](O)[C@@H](CO)O2)n1,4,-18,2.1%,·,2.2,-0.2
O=C(Nc1ccc([N+](=O)[O-])cn1)c1cccnc1,-1,-7,3.0%,-3,2.3,-0.2
C=CCN(CC(=O)NCc1ccccc1)C(=O)c1csnn1,-9,-2,6.3%,-14,-2.8,0.5
CC(C)c1ccc(/C=C(\c2nc3ccccc3[nH]2)S(=O)(=O)c2ccccc2)cc1,-1,2,-1.8%,-8,-5.9,4.8
COC(=O)c1c(C)n(-c2ccc(C)cc2)c2ccc(O)cc12,-7,-6,8.1%[38.3 µM],19,-1.7,1.2
O=C(NCc1ccc(F)cc1)c1cc(S(=O)(=O)N2CCOCC2)ccc1F,1,2,-0.7%[38.3 µM],-5,-2.8,0.9
COc1cc(Cl)c(C)cc1NC(=O)c1ccc(S(C)(=O)=O)cc1,-3,5,0.3%,11,-3.3,1.0
COc1ccccc1CNC(=O)C1CCN(S(=O)(=O)c2ccc3[nH]c(=O)ccc3c2)CC1,·,·,13%,-19,·,0.4
C/C(=N\NS(=O)(=O)c1ccc([N+](=O)[O-])cc1)c1ccc2c(c1)OCO2,-19,-8,0.4%,-3,-5.8,0.9

Further entries
molecule,CtBP-E1A blk,Six1-Eya2 inh,PINK1 expr mod,TRPML1 blocker,D2 ag,TRPML1 ag
CCN(CC)/[N+]([O-])=N/OCOC(=O)C(C)c1ccc(CC(C)C)cc1 (stereo not given),·,·,-0.7%,-14,·,-0.2
CCOc1ccc2c(c1)c(=O)c(C(=O)c1ccccc1)cn2Cc1ccccc1F,·,·,2.8%,-16,·,-0.8
Cc1cccc(N2CCN(C(=O)CCc3c(C)nc4c(c3C)c(=O)n(C)c(=O)n4C)CC2)c1C,·,·,1.6%,-8,·,-0.6
COc1ccc(C2/C=C\CC(NC(=O)OCC3c4ccccc4-c4ccccc43)CC(=O)N2Cc2ccccc2F)cc1 (stereo not given),-5,-6,2.2%,72,0.0,0.7
Cc1cccc(NC(=S)NNC(=O)CCn2cc(C)cn2)c1,7,5,-0.5%[38.3 µM],-14,-2.5,0.5
Cc1ccc(N(CC(=O)NC(C)C)C(=O)CCC(=O)Nc2nccs2)c(C)c1,·,0,1.4%,36,-2.5,-0.3
O=C(Nc1cccc(S(=O)(=O)NC2=NCCC2)c1)c1ccc(C(F)(F)F)cc1,-4,-11,-0.5%,-8,-0.3,-0.5
CC1CC2=C(C(=O)O1)C(C)Nc1ccccc1N2 (stereo not given),0,1,2.2%,-8,3.1,0.9
Cc1nc2ccccc2c(=O)n1NC(=O)/C=C/c1ccccc1Cl,?,-7,0.1%,1,2.6,-0.8
O=C(Nc1ccccc1C(=O)NC(Cc1c[nH]c2ccccc12)C(=O)O)c1ccco1 (stereo not given),0,19,2.9%,-10,-4.1,-0.9
CC(C)(C)OC(=O)N1CC(O)CC1C(=O)OCC(=O)c1ccccc1 (stereo not given),0,9,-0.2%,-4,-0.3,-0.1
Cc1ccc(-c2nnn(CC(=O)N(Cc3ccc(F)cc3)C(C(=O)NC3CCCC3)c3ccncc3)n2)o1 (stereo not given),0,4,2.3%,32,-1.8,-0.9
Cc1cc(C)cc(N2CCCn3c2nc2c3c(=O)n(CCN3CCOCC3)c(=O)n2C)c1,2,6,-0.7%,-6,0.4,0.5
C[C@@H]1COC(=O)[C@@H](CC(=O)OC(C)(C)C)C/C=C\C[C@@H](CC(=O)N[C@@H](CO)Cc2ccccc2)C(=O)N1,6,11,0.7%,-9,-5.8,-0.6
O=C1/C(=C/c2cccnc2)SC(=S)N1C1CCS(=O)(=O)C1 (stereo not given),6,-5,3.2%,20,-3.1,-0.2
Cc1[nH]n(-c2ccccc2)c(=O)c1C=Nc1cccc2cccnc12,-7,?,21%,26,-16,1.0
Nn1c(SCC(=O)Nc2ccc(N3CCOCC3)cc2)nnc1C1CC1,·,-1,3.3%,-3,-2.5,-0.7
CN(Cc1ccc(CNC[C@H]2O[C@@H](n3cnc4c(N)ncnc43)[C@H](O)[C@@H]2O)o1)S(C)(=O)=O,-3,8,2.0%,24,-1.2,-0.4
Cc1c(C(=O)OCCOC(C)C)[nH]c2c1C(=O)CC(c1ccco1)C2 (stereo not given),-2,-12,4.8%,-6,3.3,0.2
CC(NC(=O)c1ccco1)C(=O)OCc1cccc(C(F)(F)F)c1 (stereo not given),·,0,-0.7%,10,-1.4,-1.7

Part of the list above, as labelled records:
CN(Cc1ccc(CNC[C@H]2O[C@@H](n3cnc4c(N)ncnc43)[C@H](O)[C@@H]2O)o1)S(C)(=O)=O
  CtBP-E1A blk: -3
  Six1-Eya2 inh: 8
  PINK1 expr mod: 2.0%
  TRPML1 blocker: 24
  D2 ag: -1.2
  TRPML1 ag: -0.4
Cc1c(C(=O)OCCOC(C)C)[nH]c2c1C(=O)CC(c1ccco1)C2 (stereo not given)
  CtBP-E1A blk: -2
  Six1-Eya2 inh: -12
  PINK1 expr mod: 4.8%
  TRPML1 blocker: -6
  D2 ag: 3.3
  TRPML1 ag: 0.2
COc1ccc(C2/C=C\CC(NC(=O)OCC3c4ccccc4-c4ccccc43)CC(=O)N2Cc2ccccc2F)cc1 (stereo not given)
  CtBP-E1A blk: -5
  Six1-Eya2 inh: -6
  PINK1 expr mod: 2.2%
  TRPML1 blocker: 72
  D2 ag: 0.0
  TRPML1 ag: 0.7

Source: PubChem (National Center for Advancing Translational Sciences (NCATS))

An unsorted share of the library (roughly 1% active in at least one column).
